T cruzi inh = inhibitors of intracellular T. cruzi growth, primary screen, luminescence, NIH3T3 host cells; inhibition, % (test concentration not listed); hit rate 1.4% among 300,000; T. cruzi beta-gal in NIH3T3, 90 h; AID 1885, 2009;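 active = mean inhibition across valid replicates above about 55%, limit read from the data; inconclusive = mean below that limit but half or more replicates reach it; inactive = mean below it, under half of replicates reach it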;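 also: signal also drops with host cell toxicity which is not excluded here; 0% = plate median of DMSO wells and 100% = zero luminescence signal; higher percent means less beta-gal luminescence so fewer parasites; stock transfer was 50 nL into about 50 µL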
Vif A3G = inhibitors of Vif binding to APOBEC3G peptide, primary screen, biochemical, TR-FRET, GST-Vif 1-94, biotin-A3G peptide, dose response retest (AID 1117319); TR-FRET GST-Vif / biotin-A3G peptide binding; higher % means a stronger effect; test concentration not given here; strong numbers were not always called active; inhibition, %; hits with a dose series show IC50 in µM; hit rate 0.57% among 260,000;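 active = above the screen mean plus three standard deviations and confirmed in dose response; inconclusive = results disagree or hit not tested in dose response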;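 also: Vif residues 1-94 fused to GST binding biotinylated APOBEC3G peptide 110-148; 0% = full assay without inhibitor and 100% = GST in place of GST-Vif; retest series ran down from 100 µM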
Beta apoptosis = inhibitors of cytokine-induced beta cell apoptosis, primary screen, luminescence; INS-1E cytokine-induced death, ATP luminescence, 48 h; percent of positive-control rescue, neutral wells zero; protection from apoptosis, % (test concentration not listed); hit rate 0.8% among 300,000;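 active = all replicates at 75% or more, or half of them and the mean; inconclusive = half reach 75% but not the mean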;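 also: 0% = cytokine-treated negative control wells and 100% = positive control rescue; higher means more ATP so stronger rescue from cytokine killing; wells of about 40 µL received 100 nL stock; the first replicate is given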
RanGTP-Impb inh = inhibitors of RanGTP-importin-beta interaction, primary screen, biochemical, FRET, CFP-Ran, YFP-importin-beta, homogeneous | AID 2216, 2009 | inhibition, % (no concentration beside the values) | cell-free CFP-Ran/YFP-importin-beta FRET ratio | hit rate 1.1% among 300,000 | Ran GTPase (GTP-bound) - importin-beta complex;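 active = most replicates above 15%; inconclusive = exactly half above 15%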;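 also: 0% = DMSO wells and 100% = Ran loaded with GDP instead of GTP; wells of about 40 µL received 100 nL stock; the first replicate is given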
Calb FLC = C. albicans growth inhibition with fluconazole, primary screen, CaCi-2 strain, Alamar Blue fluorescence. C. albicans CaCi-2 (fluconazole-resistant clinical isolate) + fluconazole, 48 h. growth inhibition, % (no concentration beside the values). hit rate 0.57% among 300,000;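 active = most replicates above 75%; inconclusive = exactly half above 75%; inactive = most below 75%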;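 also: all wells also contain fluconazole at 8 µg/ml as a sub-toxic cotreatment; 0% = median of DMSO wells and 100% = median of geldanamycin control wells; wells of about 8 µL received 7.5 nL stock; the first replicate is given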
LANA-H2B inh = blockers of LANA interaction with H2A/H2B – biochemical, FP readout, HTS, primary screen. inhibition, % (concentration not given with the values). AID 2629, 2010. cell-free LANA-H2A/H2B peptide, fluorescence polarization. Protein LANA1 (Human herpesvirus 8 type P (isolate GK18)), Q9QR71. hit rate 0.6% among 320,000; in the data active = inhibition mostly above about 10%, no sharp cut-off; inactive = mostly below about 6.7%;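 also: stock transfer was 7.5 nL into about 10 µL; 0% = median of vehicle wells and 100% = median of positive control wells; one replicate is shown; the record names a cut of 25% in any replicate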
AF4-AF9 inh = inhibitors of AF4 peptide binding to AF9, primary screen, biochemical, AlphaScreen, biotin-AF4 peptide, FLAG-AF9, single point. hit rate 0.47% among 350,000. inhibition, % at 10 µM. AID 651704, 2012. Protein AF-9 (Homo sapiens), P42568;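 active = every replicate reaching a set inhibition limit, whatever the replicate mean, cut at about 25% in these data; inconclusive = mean inhibition reaches that limit but some replicates miss it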;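 also: 0% = plate neutral control median and 100% = total signal loss; the record names both 10 and 1 µM as test concentration; the first replicate is given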
Target sequence (P42568 whole entry, looked up): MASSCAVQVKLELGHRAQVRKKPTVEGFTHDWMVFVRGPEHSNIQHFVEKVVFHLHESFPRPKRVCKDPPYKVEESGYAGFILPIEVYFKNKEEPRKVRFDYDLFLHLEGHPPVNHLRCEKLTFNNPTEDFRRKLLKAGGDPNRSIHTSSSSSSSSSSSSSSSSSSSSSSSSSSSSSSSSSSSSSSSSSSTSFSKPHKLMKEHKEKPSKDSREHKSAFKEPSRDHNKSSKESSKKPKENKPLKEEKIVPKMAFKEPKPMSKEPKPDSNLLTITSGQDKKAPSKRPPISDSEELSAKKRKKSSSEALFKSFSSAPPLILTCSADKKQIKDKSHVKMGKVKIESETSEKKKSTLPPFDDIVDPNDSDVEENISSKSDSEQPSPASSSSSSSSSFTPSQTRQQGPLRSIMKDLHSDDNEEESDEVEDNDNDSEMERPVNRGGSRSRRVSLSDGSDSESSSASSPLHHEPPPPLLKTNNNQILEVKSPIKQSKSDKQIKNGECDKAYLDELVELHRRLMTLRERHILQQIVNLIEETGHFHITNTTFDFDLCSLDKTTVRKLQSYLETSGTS
Bfl-1 A1 inh = caspase 3/7 activation in MEF A1-2A-BIM cells, primary screen, A1 inhibitor project, cell-based, luminescence, HTS | Caspase-Glo 3/7 luminescence, 3 h; percent of clofoctol response, vehicle zero | caspase activation, % (test concentration not listed) | hit rate 0.066% among 330,000 | AID 2462, 2010;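 active = over half of replicate activation scores above 10%, or exactly half above 10 with the replicate mean above 10; inconclusive = replicate mean below 10 yet half the replicates above 10; inactive = over half of replicates below 10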;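 also: wells of about 30 µL received 50 nL stock; many hits fall short of the cut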
Numbers without * were called inactive; ? = inconclusive; · = no result given.

no. | SMILES | Calb FLC | Vif A3G | LANA-H2B inh | Beta apoptosis | AF4-AF9 inh | Bfl-1 A1 inh | T cruzi inh | RanGTP-Impb inh
1 | C#Cc1ccc([C@H]2C=C(C(=O)Nc3ccccc3)O[C@@H](OCc3ccc(CO)cc3)C2)cc1 | 17.4 | 14.6% | -2.9 | 10.5 | 0.4 | 0.3 | 14.3 | 1.6
2 | CC(C)C[C@H](NC(=O)c1ccc(OC2CCN(C(=O)C3CC3)CC2)cc1)C(N)=O | 18.8 | 6.5% | -2.2 | -2.1 | -10.8 | 0.2 | -4.0 | 1.2
3 | CC(C)Oc1ccc(/C=N/NC(=O)c2ccc(N(Cc3ccccc3)S(C)(=O)=O)cc2)cc1 | 31.3 | · | 6.4 | -4.0 | 1.2 | -0.1 | 13.2 | 0.3
4 | COc1ccc(/C=N/NC(=S)Nc2cccc(C(=O)O)c2)cc1 | -9.9 | -0.4% | 6.0 | -7.2 | -17.8 | -0.5 | -12.4 | 0.9
5 | CC1=C(C(=O)OC(C)C)C(c2ccc(O)cc2)NC(=O)N1 (stereo not given) | 1.2 | · | -4.6 | -6.1 | -0.3 | 0.3 | 3.1 | -1.8
6 | COc1ccc(N2C(=O)CCC(C(=O)Nc3cccc(C)n3)C2c2ccc(OC)c(OC)c2)cc1 (stereo not given) | 32.0 | 0.3% | -1.4 | -1.4 | · | 0.0 | -6.2 | 4.9
7 | Cc1ccccc1N1CCN(C2CCCN(C(=O)CCc3c(C)noc3C)C2)CC1 (stereo not given) | 4.7 | · | -3.4 | -4.1 | 1.2 | 0.0 | 9.8 | 3.8
8 | COc1cc([N+](=O)[O-])ccc1NC(=O)CCCOc1cccc(C)c1 | -0.5 | 10.8% | -8.0 | -1.6 | · | 0.1 | -8.4 | -1.9
9 | COc1ccc(-c2noc(CCC(=O)Nc3ccc(C)c(C)c3)n2)cc1 | 14.8 | 0.2% | -1.6 | · | · | 0.4 | -4.9 | 3.0
10 | Cc1ccc2oc(=O)c3cnn(CC(=O)NCCCOC(C)C)c3c2c1 | -1.9 | 1.1% | -8.2 | -1.7 | 3.7 | 0.3 | 3.8 | -2.7
11 | CC(C(=O)N=Nc1c(O)[nH]c2ccccc12)n1cnc2ccccc2c1=O (stereo not given) | 3.9 | -4.8% | 1.1 | -7.0 | · | 0.3 | 20.8 | 0.9
12 | Cc1cc2c(cc1S(=O)(=O)N1CC(C)CC(C)C1)OCC(=O)N2 (stereo not given) | -9.1 | · | 1.9 | 2.9 | 7.3 | 0.7 | 3.5 | 0.1
13 | Cc1ccc(OCC(=O)N/N=C\c2cccn2C)c([N+](=O)[O-])c1 | -8.2 | 7.1% | 0.9 | -4.7 | 1.5 | -2.5 | -17.3 | 1.8
14 | COCCNc1c2c(nc3c(-c4ccccc4)c(C)nn13)CCC2 | -1.6 | -5.4% | -4.6 | 4.6 | -1.4 | 0.2 | · | -0.8
15 | Cc1ccc(-c2nnn(CC(=O)N(CCN3CCOCC3)C(C(=O)NC(C)(C)C)c3ccco3)n2)cc1 (stereo not given) | 17.3 | 18.6% | 5.5 | -7.4 | -1.1 | -1.1 | -0.6 | -2.7
16 | Cc1ccccc1OCC(=O)OC(C(=O)c1ccccc1)c1ccccc1 (stereo not given) | -6.3 | · | -4.2 | 0.8 | -2.9 | 0.5 | -14.2 | 1.6
17 | CN(C)c1ccc(NC(=O)CSc2nc(N)c(C(=O)Nc3ccc(N(C)C)cc3)s2)cc1 | 3.7 | 0.6% | 0.3 | 7.9 | · | 0.4 | 18.8 | 4.9
18 | O=C(O)CC(c1ccc(Br)cc1)N1Cc2ccccc2C1=O (stereo not given) | 4.1 | -16.0% | -2.4 | -6.1 | -1.1 | -0.1 | -9.9 | 1.4
19 | CCCCSc1nnc2c(n1)OC=Nc1ccccc1-2 | 18.6 | · | -1.1 | -4.0 | -6.5 | -4.4 | -27.0 | -4.2
20 | O=C(O)CCCN1C(=O)C2C3C=CC(C2C1=O)C1C(=O)N(CCCC(=O)O)C(=O)C31 (stereo not given) | 5.2 | · | 1.2 | 2.3 | 0.2 | 0.8 | -4.2 | -2.2
21 | Cc1ccc2c(c1)C1CC(C)(O2)N(c2cccc(C(=O)NC3CCN(Cc4ccccc4)CC3)c2)C(=O)N1 (stereo not given) | 29.7 | · | 1.6 | -6.8 | 2.8 | -1.3 | 28.4 | 5.8
22 | O=C(Cc1cccc2ccccc12)Nc1ccc(O)cc1C(=O)O | -5.7 | · | 1.7 | 2.6 | -5.5 | 0.3 | -4.4 | ?
23 | O=C(COC(=O)c1ncc(Cl)c(Cl)c1Cl)NC1CCCCCC1 | -1.2 | -2.5% | 6.5 | -1.5 | -5.0 | -0.3 | -34.0 | 3.3
24 | CC(=O)Nc1cc2c(cc1NC(=O)Cn1nnc(-c3ccc(C)o3)n1)OCCO2 | ? | -6.6% | 4.9 | · | 3.8 | 0.8 | -8.3 | ?
25 | CCCn1nnnc1NCc1ccc(F)cc1 | -37.7 | · | -7.6 | -6.8 | -3.5 | 0.3 | -19.7 | ?
26 | CO/N=C(\C(=O)N[C@@H]1C(=O)N2C(C(=O)O)=C(COC(N)=O)CS[C@H]12)c1ccco1 | · | 23.1% | -1.4 | -10.4 | -3.1 | -0.3 | -12.8 | -1.4
27 | O=C1C=C(c2ccccc2)C(O)(c2ccccc2)C1 (stereo not given) | -13.8 | 16.2% | 1.6 | -8.5 | 2.3 | -0.7 | -9.2 | -1.0
28 | CC(=O)N1c2ccc(S(=O)(=O)N3CCC(C(=O)Nc4ccc(C)cn4)CC3)cc2CC1C (stereo not given) | -2.3 | · | 2.3 | 4.5 | 1.2 | -0.5 | 3.0 | 6.9
29 | CCC1CCCCN1CCCNC(=O)c1nn(C)c2c1CS(=O)(=O)c1ccccc1-2 (stereo not given) | -3.8 | 9.7% | -3.3 | -2.0 | -9.1 | -1.3 | 8.5 | 3.4
30 | O=C(Cn1cccc1C(=O)c1ccccc1)NCc1ccc(F)cc1 | -3.3 | -4.9% | 0.1 | -2.1 | 0.0 | -0.3 | -4.5 | 2.7
31 | O=C(Nc1ccc(S(=O)(=O)N2CCOCC2)cc1)c1ccc([N+](=O)[O-])s1 | · | -7.0% | 7.1 | 90.1* | -1.2 | 0.7 | 72.3* | -1.2
32 | CCCC(=O)N1CCN(c2nc3ccc(CC)cc3s2)CC1 | -0.2 | · | 6.2 | · | -2.4 | -1.6 | -1.1 | -2.1
33 | CCN1C(=NCc2ccccc2)N[C@@H](c2ccccc2)[C@H](C(=O)OC)[C@H]1C | -1.8 | · | 2.8 | -3.4 | -8.1 | -0.7 | -11.3 | -1.3
34 | COC1=C(OC)c2ccccc2C(C(=O)O)N/C1=C(/C)Nc1ccncc1 (stereo not given) | · | 6.8% | -4.5 | -3.5 | · | ? | -2.8 | 5.7
35 | CCOC(=O)c1cnn(C)c1NC(=O)c1ccc(Cl)cc1Cl | -0.5 | -0.8% | 1.2 | -3.3 | · | -0.1 | -6.2 | 2.8
36 | COc1ccc2c(c1)CCc1sc(NC(=O)c3ccc(C)cc3)nc1-2 | -4.1 | -3.8% | 1.4 | 2.8 | · | -0.1 | 11.9 | -0.7
37 | Cn1c(N)c(C(=O)COC(=O)/C=C/c2ccc(OC(F)F)cc2)c(=O)n(C)c1=O | 37.7 | 2.6% | 0.9 | 1.4 | -2.8 | 0.6 | 25.2 | -2.5
38 | O=C1NC(=Nc2ccc3ccccc3c2)S/C1=C/c1ccco1 | -4.6 | -0.8% | -6.8 | 1.5 | -0.2 | 0.9 | -9.2 | -3.5
39 | O=C(NCc1ccccn1)C1CC(c2ccc(Cl)c(Cl)c2)=NO1 (stereo not given) | 3.5 | -9.2% | 2.7 | -4.7 | · | -0.9 | -2.9 | 0.2
40 | O=C(NS(=O)(=O)c1ccc(NC(=O)C2CCCO2)cc1)c1ccccc1 (stereo not given) | 6.4 | 24.5% | 5.7 | -0.6 | 5.3 | 0.1 | 1.5 | -4.6
41 | CCOc1ccc(C(C)=O)cc1N1C(=O)C2C3C=CC(O3)C2C1=O (stereo not given) | -10.1 | 1.2% | -1.0 | -3.2 | · | -0.7 | -13.6 | 2.6
42 | O=[N+]([O-])c1cc(C(F)(F)F)cc([N+](=O)[O-])c1N1CCN(S(=O)(=O)c2ccccc2)CC1 | 2.4 | ? | -2.9 | 4.3 | · | 0.3 | 41.4 | -3.3
43 | O=C1/C(=C\c2ccc([N+](=O)[O-])cc2)CCc2ccccc21 | -23.8 | 7.6% | -1.4 | 11.0 | 2.4 | -5.7 | 9.0 | -1.0
44 | CC(C)C(=O)NCCc1c[nH]c2ccccc12 | -0.3 | 0.8% | -5.3 | 0.9 | · | 0.3 | -11.7 | 1.0
45 | O=C(Nc1ccccc1C(=O)O)c1ccc(NC(=O)C2CC2)cc1 | -8.6 | · | 8.7 | -0.2 | -5.0 | -0.9 | -2.0 | 3.4
46 | Cc1occc1C(=O)N/N=C/c1c(O)ccc2ccccc12 | 11.7 | · | -0.5 | 76.4* | 1.1 | -0.7 | 24.8 | 9.2
47 | CC(C)(C)[C@H]1CCC(=O)N([C@H](CC#N)Cc2ccccc2)CC1 | -12.5 | · | 2.0 | -2.6 | -1.3 | -0.2 | 11.3 | 4.6
48 | CC(=O)c1c(C)[nH]c(C(=O)CSc2nnc(C3CCCCC3)n2N)c1C | 9.1 | -2.0% | 0.0 | 8.8 | · | 0.1 | 2.1 | -1.3
49 | Cc1sc2nc(CSC(C)C(=O)N3CCOCC3)[nH]c(=O)c2c1C (stereo not given) | 11.6 | · | -5.5 | -7.1 | 0.4 | 0.3 | -4.6 | 0.6
50 | O=C(Nc1ccc([N+](=O)[O-])cc1)Nc1cnccn1 | -3.8 | -7.0% | -4.9 | 19.9 | -4.0 | 1.3 | 5.6 | 0.4
51 | COc1ccc(CCC(=O)c2ccc(OC)cc2)cc1 | 1.3 | · | -1.8 | -6.0 | -5.0 | -0.1 | -16.7 | 0.9
52 | N#C/C(=C\c1ccc(N2CCOCC2)c([N+](=O)[O-])c1)c1nc2ccccc2[nH]1 | 23.3 | 8.4% | 0.1 | 21.1 | 5.5 | -1.5 | -3.6 | -0.4
53 | COC(=O)c1ccccc1NC(=O)c1cccc(COc2ccccc2Cl)c1 | -8.5 | 6.8% | -0.3 | 17.8 | · | 0.1 | -4.9 | 3.9

Retrieved one by one from the entries so far:
no. | SMILES | Calb FLC | Vif A3G | LANA-H2B inh | Beta apoptosis | AF4-AF9 inh | Bfl-1 A1 inh | T cruzi inh | RanGTP-Impb inh
36 | COc1ccc2c(c1)CCc1sc(NC(=O)c3ccc(C)cc3)nc1-2 | -4.1 | -3.8% | 1.4 | 2.8 | · | -0.1 | 11.9 | -0.7
18 | O=C(O)CC(c1ccc(Br)cc1)N1Cc2ccccc2C1=O (stereo not given) | 4.1 | -16.0% | -2.4 | -6.1 | -1.1 | -0.1 | -9.9 | 1.4
